CFTR F508del: compounds raising F508del-CFTR protein level – cell-based, HeLa F508del-CFTR, immunofluorescence, viability, primary screen (AID 1224863) | HeLa F508del-CFTR, immunofluorescence total CFTR, 24 h; by the record results were divided by relative cell number; some inactives read as strong as hits | calls, or highest fold increase where a dose series was run | 10,000 compounds, 0.1% hits; in the data nearly all actives have a first-pass fold increase above 1.5; a few of its hits are not listed in these tables;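 further: total CFTR protein by anti-CFTR immunofluorescence in fixed cells; first pass at 25 µM or 10 µg/mL by library and series up to twice that; 1 = untreated cells; first-pass hits also needed half or more of the cells alive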
CFTR F508del fold 25 µM: second read-out of CFTR F508del, no call of its own (marks repeat the call); fold increase; measured here: primary screen single dose 25 uM; library dosed in µM
CFTR F508del fold 10 ug/mL: recorded beside CFTR F508del, whose call it bears; fold increase; measured here: primary screen 10 ug/mL
CFTR F508del viability 25 µM: second read-out of CFTR F508del, no call of its own (marks repeat the call); viability, %; measured here: primary viability 25 uM; library dosed in µM;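 0% = killed and 100% = untreated cells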
CFTR F508del viability 10 ug/mL: further read-out of CFTR F508del, marked with its call; viability, %; measured here: primary viability 10 ug/mL;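 0% = killed and 100% = untreated cells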
Starred values were filed as active, the others as inactive; i = inactive; / = no result given; & = joins results of further samples. These rows are one share of the data; count on the stated rates, not on these rows.

SMILES | CFTR F508del | CFTR F508del fold 10 ug/mL | CFTR F508del viability 10 ug/mL | others
O=C(O)CCC(=O)OC[C@@H](NC(=O)C(Cl)Cl)[C@H](O)c1ccc([N+](=O)[O-])cc1 | i | / | / | CFTR F508del fold 25 µM=0.97;CFTR F508del viability 25 µM=103
Nc1ccnn1Cc1cccc2ccccc12 | i | 1.1 | 89
C=CCSc1nc2cc(C(=O)OC)ccc2c(=O)n1CC1CCCO1 (stereo not drawn) | i | 0.99 | 88
O=S(=O)(NCc1csc(Br)c1)c1ccc(Cl)s1 | i | 0.88 | 78
CC(C)CN(C(=O)COC(=O)c1ccc([N+](=O)[O-])s1)C1CCS(=O)(=O)C1 (stereo not drawn) | i | 0.95 | 87
CC(OC(=O)C1=NN(C2CCS(=O)(=O)C2)C(=O)CC1)C(=O)c1ccc(Br)cc1 (stereo not drawn) | i | 1 | 96
Cc1cc(C(C)NC(=O)C(NC(=O)c2cccs2)C(C)C)c(C)s1 (stereo not drawn) | i | 0.98 | 90
O=C(CN1C(=O)CC2(CCCCC2)C1=O)c1ccc(F)cc1 | i | 1 | 101
CCN(CC)CCNC(=O)c1ccc(N)cc1 | i | / | / | CFTR F508del fold 25 µM=1.1&1.1;CFTR F508del viability 25 µM=96&84
CC(C)(N)c1ccc(Br)cc1 | i | 0.98 | 98
CC(=O)O[C@]1(C(C)=O)CCC2C3C=C(C)C4=CC(=O)CCC4(C)C3CCC21C (stereo partly drawn) | i | / | / | CFTR F508del fold 25 µM=1;CFTR F508del viability 25 µM=82
CN(C)C(=O)Oc1cccc([N+](C)(C)C)c1 | i | / | / | CFTR F508del fold 25 µM=1.1&1.1&1&1.1;CFTR F508del viability 25 µM=94&103&79&94
Cn1cc(C#N)c(=O)n(CC(=O)Nc2sccc2C(N)=O)c1=O | i | 1.1 | 104
O=S1(=O)CCC(N(Cc2ccco2)S(=O)(=O)c2ccc(S(=O)(=O)N3CCCC3)cc2)C1 (stereo not drawn) | i | 0.89 | 113
CC(C(=O)N(C)C1CCCCC1)n1cccn1 (stereo not drawn) | i | 0.96 | 75
Cn1c(SCc2cc([N+](=O)[O-])cc3c2OCOC3)nc2sccc2c1=O | i | 1 | 87
O=c1c2ccccc2n2c(=S)n(CN3CCc4ccccc4C3)nc2n1-c1ccccc1 | i | 1 | 91
COC(=O)CCN1C(=O)c2cc(Cl)c(Cl)cc2C1=O | i | 0.98 | 101
O=C(c1ccc(Cl)o1)N1CCN(S(=O)(=O)N2CCCC2)CC1 | i | 0.99 | 81
c1ccc2c(c1)oc1c(SCCN3CCOCC3)ncnc12 | i | 1 | 94
CCCC1NC(=O)N(Cc2nc(N)nc(N)n2)C1=O (stereo not drawn) | i | 1 | 98
O=C(COc1ccc2c3c(c(=O)oc2c1)CCC3)NC1CCCCCC1 | i | 1 | 95
CCNC1CN(CCCOC)S(=O)(=O)c2sc(S(N)(=O)=O)cc21 (stereo not drawn) | i | / | / | CFTR F508del fold 25 µM=0.95;CFTR F508del viability 25 µM=85
Cn1c(SCCN2c3cccc4cccc(c34)S2(=O)=O)nnc1-c1ccc(F)cc1 | i | 0.79 | 67
Fc1ccc2sc(CNc3ccc4nnnn4n3)cc2c1 | i | 1.2 | 105
CCCCn1c(N)c(N(CCC)C(=O)/C=C/c2c(C(=O)OCC)c(C)n(CC)c2C)c(=O)[nH]c1=O | i | 0.98 | 85
CNS(=O)(=O)Cc1ccc(CNS(=O)(=O)c2cc(C(F)(F)F)cc(C(F)(F)F)c2)cc1 | i | 1 | 114
Cc1nc(-c2ccc(CN3C(=O)CNC3=S)s2)cs1 | i | 1.1 | 89
COC(=O)N[C@H](C(=O)N[C@@H](Cc1ccccc1)[C@@H](O)CN(Cc1ccc(-c2ccccn2)cc1)NC(=O)[C@@H](NC(=O)OC)C(C)(C)C)C(C)(C)C | i | / | / | CFTR F508del fold 25 µM=0.86&1.1&1;CFTR F508del viability 25 µM=84&105&103
Fc1ccccc1-c1nnc(SCc2cn3ccccc3n2)n1C1CC1 | i | 1 | 79
O=C(c1sc2sccc2c1Cl)N1CCN(S(=O)(=O)c2ccc(Cl)s2)CC1 | i | 0.91 | 96
O=c1cc(CN2CCc3ccccc3C2)nc2sc3c(n12)CCCC3 | i | 1.1 | 103
O=C(/C=C/c1cc(Br)ccc1F)c1ccc2[nH]c(=O)[nH]c2c1 | i | 0.8 | 58
COC(=O)C1=C(C)NC(C)=C(C(=O)OC)C1c1ccccc1[N+](=O)[O-] | i | / | / | CFTR F508del fold 25 µM=0.89&0.85;CFTR F508del viability 25 µM=69&72
CC1=C(CC(=O)O)c2cc(F)ccc2/C1=C\c1ccc(S(C)=O)cc1 (stereo not drawn) | i | / | / | CFTR F508del fold 25 µM=1.1&1;CFTR F508del viability 25 µM=98&100
NC(=O)c1cc[n+](CC2=C(C(=O)O)N3C(=O)C(NC(=O)C(c4ccccc4)S(=O)(=O)[O-])C3SC2)cc1 (stereo not drawn) | i | / | / | CFTR F508del fold 25 µM=1.1;CFTR F508del viability 25 µM=83
CNc1nc(-c2[nH]c(C)c(C(=O)OC)c2C)cs1 | i | 0.97 | 82
C=CCNC(=O)NC(C)(C)C(=O)O | i | 1.1 | 103
NC(c1ccc(F)cc1)c1ccccc1Cl (stereo not drawn) | i | 1 | 75
Clc1ccc(C(c2ccccc2)N2CCc3ccccc3C2)cc1 (stereo not drawn) | i | 0.69 | 43
c1ccc(-n2cnnc2SCc2cc(-c3ccco3)on2)cc1 | i | 1.1 | 98
NC(=O)c1c(NC(=O)CN2CCc3sccc3C2)sc2c1CCC2 | i | 1.1 | 104
CN(C)C(=O)c1ccc(N2CCOC2=O)cc1 | i | 0.98 | 97
O=S(=O)(Nc1cccc(S(=O)(=O)C2CCCC2)c1)c1ccc(Cl)cc1F | i | 0.94 | 85
Cc1noc(C)c1S(=O)(=O)NCc1ccccc1S(=O)(=O)N(C)C | i | 1.1 | 103
CC1(C2CC2)NC(=O)N(CN2CCC(c3nc4ccccc4s3)CC2)C1=O (stereo not drawn) | i | 1 | 95
O=C(O)CCN1C(=O)COc2cc(Br)ccc21 | i | 1 | 96
CC(C)(C)C(=O)CN1C(=O)NC(C)(c2ccc(F)cc2)C1=O (stereo not drawn) | i | 0.96 | 107
CCC(CC)C(=O)N1CCN(c2nc(N3CCCC3)nc(N3CCCC3)n2)CC1 | i | 0.89 | 94
C=C(C)COC(=O)c1ccc(COc2ccc3c(C)cc(=O)oc3c2)cc1 | i | 0.94 | 84
O=C1C(=O)N(CN2CCCN(S(=O)(=O)c3ccc(F)cc3)CC2)c2ccc(Br)cc21 | i | 1 | 100
CN(CC1COc2ccccc2O1)S(=O)(=O)c1cc(Cl)ccc1Cl (stereo not drawn) | i | 0.98 | 82
Cc1cc(Cl)c(C)c(S(=O)(=O)NCCN(C)C)c1Cl | i | 1.1 | 95
C=CCNC(=O)Cn1cnc2c1c(=O)n(C)c(=O)n2C | i | 1 | 101
CC(NCc1ccc(Br)cc1)c1ccc(-n2ccnc2)cc1 (stereo not drawn) | i | 0.88 | 78
CC(C(=O)Nc1sccc1C(N)=O)N1CCN(C(=O)C2CC2)CC1 (stereo not drawn) | i | 1 | 97
CC(=O)N1CCc2cc(C(=O)C(C)Sc3n[nH]c(=O)n3C3CC3)ccc21 (stereo not drawn) | i | 0.99 | 100
O=C(Cn1nc2n(c1=O)CCCCC2)NC12CC3CC(CC(C3)C1)C2 | i | 1.2 | 92
CCOC(=O)N1CCN(CC(=O)NC(C)(C#N)C2CC2)CC1 (stereo not drawn) | i | 1.1 | 111
CC1CCC(N(Cn2nc(-c3cccs3)n(C3CC3)c2=S)C2CC2)CC1 (stereo not drawn) | i | 1.1 | 98
Going on with the list.
SMILES | CFTR F508del | CFTR F508del fold 10 ug/mL | CFTR F508del viability 10 ug/mL | others
CCC1(c2ccc(C)cc2)NC(=O)N(CN2CCC(C)CC2)C1=O (stereo not drawn) | i | 1 | 92
Cc1c(-c2ccccc2)sc2ncnc(SCCO)c12 | i | 0.72 | 74
Cc1cc(C)c2cc(C(=O)OCC(=O)C(C)(C)C)[nH]c2c1 | i | 1.1 | 98
CC(C)(C)OC(=O)N1CCCC(C(=O)NC2CCCN(c3nc4sccn4c3[N+](=O)[O-])C2)C1 (stereo not drawn) | i | 0.92 | 83
Cc1nn(Cc2ccccc2Cl)c(C)c1CN(C)c1ccc2nnnn2n1 | i | 0.94 | 101
O=C(OCc1nnsc1Cl)c1cc2c(cc1[N+](=O)[O-])OCCO2 | i | 0.98 | 96
Cn1c(CSc2nc3ccccc3n2C(F)F)cc(=O)n(C)c1=O | i | 1 | 95
NC1CCN(CC(F)(F)F)CC1 | i | 1 | 85
O=C(OCn1nnc2ccccc2c1=O)c1ccc(N2CCCC2)c([N+](=O)[O-])c1 | i | 0.98 | 96
COCCn1cnn(CN2Cc3c(OC)ccc(OC)c3C(O)C2)c1=S (stereo not drawn) | i | 0.98 | 99
CC(c1nc(C(C)(C)C)no1)N1CCN(c2ccc(F)cc2)CC1 (stereo not drawn) | i | 0.99 | 88
COC(=O)CCN(CC(C)C)CN1C(=O)NC2(CCCCCC2)C1=O | i | 1 | 106
Fc1cccc(-n2nnn(CN3CCN(c4ncccn4)CC3)c2=S)c1 | i | 0.91 | 98
O=C(O)CCCCC(=O)O | i | 1.1 | 99
Cc1cc(C)c2c(C#N)c[nH]c2n1 | i | 1 | 90
Cc1cc(C(=O)CSc2nnnn2C2CC2)c(C)n1C(C)C | i | 0.98 | 79
O=C(NCC1CC1)c1c(-n2cccc2)sc2c1CCSC2 | i | 1.1 | 88
O=C(c1cc(C2CC2)on1)N1CCc2[nH]c3ccc(Br)cc3c2C1 | i | 0.87 | 79
NC(=O)c1c(NC(=O)CN2CCN(C(=O)C3CC3)CC2)sc2c1CCC2 | i | 0.94 | 72
CC(C)(C)OC(=O)N1CCCC(C(=O)NC2CCCN(C(=O)C34CC5CC(CC(C5)C3)C4)C2)C1 (stereo not drawn) | i | 1 | 79
O=S(=O)(NCC1(N2CCOCC2)CCCCC1)c1ccc2c(c1)OCCCO2 | i | 0.9 | 103
CCC(C)(C)C1CCc2nc3ccc(Cl)cc3c(-c3ccccc3F)c2C1 (stereo not drawn) | i | 1.1 | 95
O=C1c2ccccc2C(=O)N1CC1CCNCC1 | i | 1 | 98
CCCCn1c2c(c(=O)n(C)c1=O)C(c1ccc3c(c1)OCO3)C1=C(CC(C)(C)CC1=O)N2 (stereo not drawn) | i | 1.1 | 90
CN(Cc1ccccc1C(F)(F)F)C(=O)C12CC3CC(CC(C3)C1)C2 | i | 1 | 93
O=C1CC(C(F)(F)F)NCCN1 (stereo not drawn) | i | 1 | 91
Cc1nc(SCCN2CCOCC2)c2c(=O)n(C)c(=O)n(CC(C)C)c2n1 | i | 0.96 | 90
O=C(C1CCN(c2nc3sccn3c2[N+](=O)[O-])CC1)N1CCCC1 | i | 1.1 | 100
Cc1cc(-n2c(C)cc(C(=O)NC(C)C)c2C)no1 | i | 0.98 | 93
Cc1cc(/C=C/C(=O)N2CCN(S(=O)(=O)c3ccc(Cl)s3)CC2)c(C)n1Cc1ccco1 | i | 0.98 | 97
O=C(NOCc1ccccc1)C1(c2ccc(F)cc2)CC1 | i | 1.1 | 99
COc1ccc(Br)cc1COc1ccc(S(=O)(=O)N2CCOCC2)cc1 | i | 0.93 | 73
Cc1cc2oc(=O)cc(CSc3cccc(C(F)(F)F)c3)c2cc1C(C)C | i | 1 | 111
CC12CCC(=O)N1C(C(=O)N1CCCc3cc(C(F)(F)F)ccc31)CS2 (stereo not drawn) | i | 0.92 | 101
CC1CN(S(=O)(=O)N(C)C2CCCc3ccccc32)CC(C)O1 (stereo not drawn) | i | 1 | 93
CCC(=O)N(c1nnc(SCC(=O)c2cc(C)sc2C)s1)C1CC1 | i | 0.89 | 97
Cc1occc1-c1nnc(SCC(=O)NC2(C#N)CCCC2)o1 | i | 1.1 | 94
Cc1nc2n(c(=O)c1CCN1CCC(c3noc4cc(F)ccc34)CC1)CCC[C@H]2O | i | / | / | CFTR F508del fold 25 µM=0.85;CFTR F508del viability 25 µM=88
Cc1cc2nc(Sc3nnc(-c4ccc(Br)cc4)o3)c3ccccc3n2n1 | i | 0.98 | 91

Assay outcomes deposited in PubChem BioAssay by Southern Research Institute.
